Screening results (PubChem BioAssay)
GALR2 agonist: activates the human galanin receptor 2. O43603. GALR2-expressing cells, agonist activation read-out. activation, %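 (tested at 5 µM)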. 0.48% of 140,000 active;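 active = above mean plus 3 SD of all compounds, about 5% in these data, not always enough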;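 also: 0% = vehicle buffer wells and 100% = reference agonist at full effect; tested in CHO reporter cells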
Target sequence (O43603 whole entry, looked up): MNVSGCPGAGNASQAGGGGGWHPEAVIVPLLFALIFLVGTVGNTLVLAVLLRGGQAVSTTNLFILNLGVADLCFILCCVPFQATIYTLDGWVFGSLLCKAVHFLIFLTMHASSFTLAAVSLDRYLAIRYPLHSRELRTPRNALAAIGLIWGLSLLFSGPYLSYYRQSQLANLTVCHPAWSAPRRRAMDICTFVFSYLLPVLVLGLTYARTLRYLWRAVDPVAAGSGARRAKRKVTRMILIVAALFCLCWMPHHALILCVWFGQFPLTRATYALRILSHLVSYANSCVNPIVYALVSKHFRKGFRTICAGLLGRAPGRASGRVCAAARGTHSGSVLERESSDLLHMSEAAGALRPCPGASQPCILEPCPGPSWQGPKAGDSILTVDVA
RGS16-Gao: modulates binding between human RGS16 and Galphao; O15492+P09471; bead-based flow cytometry RGS16-Galphao binding, fluorescence; actives lie on both sides; binding response (% of control), % at 10 µM; 0.38% of 220,000 active;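 active = below 25% or above 175%, edge rows of some plates excepted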;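 also: Galphao activated by GDP with aluminum fluoride before binding; 100% = wells without compound and 0% = beads without RGS; some results beyond the cut were filed as inactive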
Target sequence (O15492 whole entry, looked up): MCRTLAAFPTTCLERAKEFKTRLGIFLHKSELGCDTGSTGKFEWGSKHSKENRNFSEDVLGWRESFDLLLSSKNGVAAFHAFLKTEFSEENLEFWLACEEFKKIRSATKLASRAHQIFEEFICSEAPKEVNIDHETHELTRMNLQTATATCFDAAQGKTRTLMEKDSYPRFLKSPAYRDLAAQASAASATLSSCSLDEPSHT
Target sequence (P09471 whole entry, looked up): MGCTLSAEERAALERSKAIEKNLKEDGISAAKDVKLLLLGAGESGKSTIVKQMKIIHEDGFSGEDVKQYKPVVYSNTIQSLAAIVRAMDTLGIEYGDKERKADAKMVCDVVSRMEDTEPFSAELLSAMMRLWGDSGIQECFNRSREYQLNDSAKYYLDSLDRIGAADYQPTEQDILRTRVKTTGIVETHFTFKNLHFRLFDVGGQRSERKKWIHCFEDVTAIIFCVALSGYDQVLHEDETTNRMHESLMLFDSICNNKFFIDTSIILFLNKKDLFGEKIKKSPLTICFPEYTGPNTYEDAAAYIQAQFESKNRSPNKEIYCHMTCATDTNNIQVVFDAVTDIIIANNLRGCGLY
Insulin prom inh: TRM-6 insulin promoter activity inhibition; TRM-6 cells (human fetal islet line), insulin promoter-eGFP reporter, imaging; reporter expression induced with tamoxifen; inhibition, % at 2 µM; 0.9% of 130,000 active; AID 1273;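 active = inhibition above the mean plus 3 SD, with well images judged a real hit on visual review, cut at about 60% in these data, passing the limit was not always enough; inconclusive = inhibition over the cutoff but images rejected on review; inactive = inhibition not above the cutoff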
PKD1 inh: blocks activity of human protein kinase D1 | Q15139 | PKD1 kinase fluorescence polarization assay | inhibition, %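 (about 10 µM by stock and volumes)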 | 0.056% of 200,000 active;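 active = inhibition of 50% or more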;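 also: controls were vehicle for no effect and a reference inhibitor for full effect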
HSV augment: increases HSV replication in cells | HSV replication augmentation in cells, fold increase | maximum fold increase | 0.005% of 220,000 active | AID 1956;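 active = peak rise of 1.5-fold or more in the series; inconclusive = self-fluorescent or not available for retest; tested in PC3 cells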;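 also: first round at 10 µM; read as green reporter fluorescence; hits show the peak of a series up to 25 µM; 1 = signal of infected wells without compound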
Insulin prom inh cell count: further read-out of Insulin prom inh, marked with its call; normalized cell count, %; measured here: cell count, toxicity; reference of the scale not given here;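 cells exposed to compound for 48 h; stained nuclei by imaging scaled within each plate; lower means fewer cells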
HSV augment primary fold: also measured in HSV augment; calls as there; fold increase; compound at 10 µM; measured here: primary screen fold increase 10 uM; tested in PC3 cells;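 GFP signal in the first replicate; 1 = infected wells without compound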
The depositor's hits bear a star; i = inactive; ? = inconclusive; . = not tested or not shown.

Sequence of screens: GALR2 agonist | RGS16-Gao | Insulin prom inh | Insulin prom inh cell count | PKD1 inh | HSV augment | HSV augment primary fold
CC(c1ccccc1)N1C(=O)C2C3C=CC(C4CC34)C2C1=O (centres undefined)
 : . | 78 | 17 | 101 | 1 | i | 0.95
N#CC1=C(N)NC(=S)C(C(N)=O)C1c1ccc([N+](=O)[O-])cc1 (centres undefined)
 : . | 94 | . | . | -9 | i | 0.88
CCCCN(C(=O)CSc1nnc(-c2ccc(OC)cc2)n1CC)c1c(N)n(Cc2ccccc2)c(=O)[nH]c1=O
 : -0.4 | 96 | 0 | 141 | -23 | i | 0.97
Cc1csc(NC(=O)C2CCCN(S(=O)(=O)c3cnc[nH]3)C2)n1 (centres undefined)
 : -1.6 | 78 | . | . | -6 | i | 1.1
CC(C)C(NC(=O)CNC(=O)OC(C)(C)C)C(=O)NCc1ccccc1 (centres undefined)
 : -0.8 | 103 | 8 | 139 | 12 | i | 0.91
COC(=O)C1=C(C)Nc2ncnn2C1c1cccnc1 (centres undefined)
 : -0.8 | 101 | 25 | 116 | -5 | i | 1.1
O=S(=O)(Nc1ccccn1)c1cccc(S(=O)(=O)c2ccc(Br)cc2)c1
 : . | 102 | . | . | 1 | i | 0.83
CC1SCC(NC(=O)c2ccc(Cl)cc2)CS1 (centres undefined)
 : . | 105 | . | . | . | ? | .
CCC(=O)N1CCN(c2ccc(NC(=O)c3ccc([N+](=O)[O-])o3)cc2Cl)CC1
 : . | 99 | . | . | -9 | i | 0.61
O=c1c2ccccc2c(C=Nc2ccc(Cl)cn2)c(O)n1-c1cc(Cl)ccc1N1CCOCC1
 : -0.9 | 104 | -8 | 110 | 2 | i | 1
O=C(COc1ccc(Cl)cc1Cl)NCCSc1ccc(Cl)cc1
 : -0.5 | 96 | -6 | 104 | 2 | i | 0.99
COc1ccc(NC(=O)OCC(C)C)cc1OC
 : -0.9 | 99 | -39 | 79 | 2 | i | 0.92
Cc1ccc(C2(C)NC(=O)N(CC(=O)Nc3cc(C)on3)C2=O)cc1 (centres undefined)
 : -1.2 | 98 | 17 | 82 | -11 | i | 0.94
Cc1ccc(/C=C/C(=O)NCCc2c[nH]c3ccccc23)o1
 : . | 95 | -467 | 42 | 9 | i | 0.94
CCC(=O)Nc1cc(C(=O)NCC2CCCN2CC)c(OC)cc1N(C)C (centres undefined)
 : -1.6 | 97 | -27 | 66 | 0 | i | 0.98
O=C(CSc1nnc(Cc2ccccc2)o1)c1cc(F)ccc1F
 : . | 105 | -42 | 140 | -7 | i | 0.93
Cc1ccc(N2C(=O)c3ccccc3C2C(=O)c2cc(C)ccc2O)cc1 (centres undefined)
 : -2.4 | 102 | 23 | 88 | -9 | i | 0.79
O=C(N=C1SCC(=O)N1c1ccccc1Cl)c1ccccc1
 : . | 98 | . | . | 1 | i | 1.1
Cc1ccccc1OCCOc1cccc(/C=N/NC(=O)Cc2nnc(N)s2)c1
 : 1.0 | 95 | -2 | 182 | 21 | i | 0.96
CC(C)COC(=O)Cc1c(O)c2ccccc2[nH]c1=O
 : -1.6 | 101 | . | . | -18 | i | 0.79
C=CCOc1ccc(-c2n[nH]c(=S)o2)cc1
 : . | 99 | 0 | 112 | -2 | i | 0.9
CCc1c(C)sc(NC(=O)c2cc(C)on2)c1C#N
 : -0.5 | 102 | -3 | 83 | -9 | i | 0.77
O=C(Nc1ccc([N+](=O)[O-])cc1)C(Cc1ccccc1)N1C(=O)c2cccc3cccc(c23)C1=O (centres undefined)
 : . | 98 | . | . | -1 | i | 0.85
O=C(Nc1cccc(C(=O)O)c1)Nc1ccccc1Cl
 : . | 102 | . | . | 7 | i | 1.1
O=C(/C=C/N1CCOCC1)c1coc2ccccc12
 : -1.8 | 107 | 50 | 64 | 8 | . | .
CCOc1ccc(S(=O)(=O)Nc2cc(C)ccn2)c2ccccc12
 : -2.3 | 105 | 43 | 87 | -3 | i | 0.88
c1ccc(-c2cc3c(-n4cccc4)ncnc3o2)cc1
 : -1.5 | 95 | -29 | 143 | 13 | . | .
Cc1ccc(NC(=O)c2ccco2)cc1NC(=O)CSc1nnc(-c2cccs2)n1C
 : -1.8 | 104 | 13 | 111 | -6 | i | 0.86
Cc1ccc(CNS(=O)(=O)c2ccc3c(c2)OCCO3)cc1
 : -0.7 | 107 | 37 | 135 | -1 | i | 0.98
CCn1c(=O)c([N+](=O)[O-])c(NCCCn2ccnc2)c2ccccc21
 : . | 101 | . | . | . | i | 1.1
COc1ccc(C2CC(c3ccccc3)=NN2C(=O)COC(=O)c2cc(S(=O)(=O)N3CCOCC3)ccc2F)cc1 (centres undefined)
 : -0.9 | 146 | 0 | 81 | 2 | i | 0.81
O=C(COc1ccccc1)Nn1c(-c2ccccc2)nc2ccccc2c1=O
 : -1.2 | 102 | -28 | 61 | 4 | i | 1.1
CC(C)(C)c1ccc(OCC(O)CN(CCO)CC(O)Cn2ccc3ccccc32)cc1 (centres undefined)
 : -0.1 | 98 | . | . | 4 | i | 0.86
CC(C)(C)C(=O)Nc1cccc(-c2nc3ccccc3c(=O)o2)c1
 : -2.1 | 99 | 6 | 125 | -5 | i | 0.84
CCn1c(SCC(=O)N/N=C/c2ccc(C)s2)nc2ccccc21
 : 1.1 | 99 | -26 | 111 | -1 | i | 0.74
O=C(Nc1ccc(F)cc1)C(NC1CCCCC1)c1ccccc1 (centres undefined)
 : . | 99 | . | . | -4 | i | 1.1
Cc1ccc(C(=O)N/C(=C/c2ccco2)C(=O)OCN2C(=O)c3ccccc3C2=O)cc1
 : 0.5 | 106 | -14 | 126 | 1 | i | 1.1
CCc1nnc(NC(=O)CSc2nnc(Cc3ccc(OC)cc3)o2)s1
 : -0.3 | 83 | . | . | -12 | i | 0.95
CCNC(=S)N(Cc1ccco1)Cc1cc2cc3c(cc2[nH]c1=O)OCCO3
 : 0.5 | 30 | . | . | -9 | i | 1.1
O=C(Nc1nccs1)c1ccc2c(=O)n3c(nc2c1)CCCCC3
 : -0.1 | 102 | . | . | 4 | i | 1

4 compounds picked at random from the list so far:
Sequence of screens: GALR2 agonist | RGS16-Gao | Insulin prom inh | Insulin prom inh cell count | PKD1 inh | HSV augment | HSV augment primary fold
O=C(Nc1ccc(F)cc1)C(NC1CCCCC1)c1ccccc1 (centres undefined)
 : . | 99 | . | . | -4 | i | 1.1
Cc1ccc(NC(=O)c2ccco2)cc1NC(=O)CSc1nnc(-c2cccs2)n1C
 : -1.8 | 104 | 13 | 111 | -6 | i | 0.86
c1ccc(-c2cc3c(-n4cccc4)ncnc3o2)cc1
 : -1.5 | 95 | -29 | 143 | 13 | . | .
O=C(Nc1cccc(C(=O)O)c1)Nc1ccccc1Cl
 : . | 102 | . | . | 7 | i | 1.1

More records follow:
| SMILES | GALR2 agonist | RGS16-Gao | Insulin prom inh | Insulin prom inh cell count | PKD1 inh | HSV augment | HSV augment primary fold |
| --- | --- | --- | --- | --- | --- | --- | --- |
| CC1(C)CC(NC(=O)N2c3ccccc3Sc3ccccc32)CC(C)(C)N1 | . | 101 | . | . | . | i | 0.84 |
| Cn1c(SCC(=O)N2CCOCC2)nnc1-c1cccc(NC(=O)c2ccccc2)c1 | 1.4 | 104 | . | . | 2 | i | 0.93 |
| CCOc1ccc(-n2c(-c3ccccc3)c[n+]3c2CCC3)cc1 | . | 100 | . | . | -1 | i | 0.85 |
| Cc1ccc(-c2nc3ccccc3s2)cc1NC(=S)NC(=O)c1ccccc1 | -2.0 | 101 | 40 | 84 | 20 | i | 0.83 |
| Cc1cc(C)cc(NC(=O)COC(=O)CN=C2NS(=O)(=O)c3ccccc32)c1 | . | 104 | . | . | -5 | i | 1.1 |
| CCCNNC(=O)C(O)(c1ccccc1)c1ccccc1 | -1.8 | 99 | . | . | -8 | i | 1.1 |
| CN1CCN(C(=O)/C(=C\c2ccccc2)c2ccccc2)CC1 | 0.7 | 121 | -32 | 105 | -1 | i | 1.1 |
| Clc1cc(Br)ccc1OCCCn1ccnc1 | -0.4 | 106 | 10 | 102 | -2 | i | 1.1 |
| NNc1nc(NCc2ccccc2)nc(N2CCOCC2)n1 | -1.1 | 43 | 43 | 198 | -7 | i | 0.8 |
| NC(=O)CCN1CCN(Cc2nc(C(c3ccccc3)c3ccccc3)no2)CC1 | . | 95 | . | . | 4 | i | 1.1 |
| Cc1ccc(Cn2cc(S(=O)(=O)c3ccc(C(C)C)cc3)c(=O)c3cc4c(cc32)OCO4)cc1 | 0.7 | 95 | . | . | -4 | i | 1 |
| COC(=O)C1=C(C)N(C)C(=O)NC1c1cc(Cl)cc(Cl)c1OC (centres undefined) | -1.6 | 107 | -331 | 36 | 1 | i | 0.96 |
| CC(NC(=O)c1cccs1)C(c1cccs1)N1CCN(Cc2ccccc2)CC1 (centres undefined) | -1.7 | 108 | 8 | 52 | -13 | i | 0.94 |
| COc1cc(CNCCCCO)ccc1OCc1ccccc1F | . | 101 | 11 | 81 | 8 | i | 1.1 |
| c1coc(-c2cc(C3CCNCC3)[nH]n2)c1 | . | 102 | 41 | 116 | 3 | i | 1.1 |
| C=CCn1c(SCC(=O)NCc2ccco2)nc2sc3c(c2c1=O)CCCCC3 | -1.1 | . | 7 | 34 | -4 | . | . |
| COC(=O)C1=C(CN2CCc3ccccc32)NC(=O)NC1c1cc(C)ccc1C (centres undefined) | -2.0 | 100 | -8 | 110 | -8 | . | . |
| Cc1ccc(NC(=O)CCSc2nnc3ccccn23)cc1 | 0.0 | 71 | -23 | 190 | -1 | i | 0.88 |
| CC(=O)Nc1nc2ccccc2[nH]1 | . | 99 | . | . | -2 | i | 1.1 |
| CC(C)c1nnc(SCC(=O)N2CCc3ccccc32)n1N | . | 95 | . | . | 1 | i | 0.99 |

6 compounds from above, ordered by their value in HSV augment primary fold, highest first:
Structure | GALR2 agonist | RGS16-Gao | PKD1 inh | HSV augment | HSV augment primary fold
NC(=O)CCN1CCN(Cc2nc(C(c3ccccc3)c3ccccc3)no2)CC1 | . | 95 | 4 | i | 1.1
Cc1ccc(Cn2cc(S(=O)(=O)c3ccc(C(C)C)cc3)c(=O)c3cc4c(cc32)OCO4)cc1 | 0.7 | 95 | -4 | i | 1
CC(C)c1nnc(SCC(=O)N2CCc3ccccc32)n1N | . | 95 | 1 | i | 0.99
COC(=O)C1=C(C)N(C)C(=O)NC1c1cc(Cl)cc(Cl)c1OC (centres undefined) | -1.6 | 107 | 1 | i | 0.96
CC(NC(=O)c1cccs1)C(c1cccs1)N1CCN(Cc2ccccc2)CC1 (centres undefined) | -1.7 | 108 | -13 | i | 0.94
CCOc1ccc(-n2c(-c3ccccc3)c[n+]3c2CCC3)cc1 | . | 100 | -1 | i | 0.85

Continuation.
| SMILES | GALR2 agonist | RGS16-Gao | Insulin prom inh | Insulin prom inh cell count | PKD1 inh | HSV augment | HSV augment primary fold |
| --- | --- | --- | --- | --- | --- | --- | --- |
| N#CCC(=O)N/N=C/c1ccccc1Cl | . | 105 | . | . | -5 | i | 0.98 |
| COc1ccc(N2CCN(C(=O)CCc3ccc(S(=O)(=O)NCC(C)C)cc3)CC2)cc1 | -1.1 | 93 | -30 | 121 | 4 | i | 1.1 |
| COc1ccccc1Nc1ncnc2c1cnn2-c1cccc(C)c1 | -0.1 | 71 | -30 | 89 | 4 | i | 0.93 |
| CC(C)OCCCNC(=O)Nc1cccc2ccccc12 | . | 103 | . | . | -5 | i | 1 |
| O=C(N/C(=C/c1cccc([N+](=O)[O-])c1)C(=O)N1CCCCCC1)c1cccs1 | -1.0 | 111 | -41 | 97 | -8 | i | 1 |
| COc1cc2c(cc1OC)CN(C(=S)Nc1ccccc1Cl)CC2 | . | 92 | -7 | 85 | -2 | i | 1.1 |
| Cc1cc(C(=O)NP(=O)(N2CCOCC2)N2CCOCC2)c(C)n1-c1ccc(Br)cc1 | 0.0 | 134 | . | . | -3 | i | 1 |
| O=C1C(Cl)=C(NCCCN2CCOCC2)C(=O)N1CCc1ccccc1 | 2.3 | 106 | -20 | 70 | -4 | . | . |
| CCN(CC)c1ccc(/C=N/n2c(C)cc(C)cc2=O)cc1 | -0.7 | 102 | . | . | -13 | i | 0.79 |
| Cc1ccc(NC(=O)c2cc3c(s2)CCC3)cc1S(=O)(=O)N1CCOCC1 | 0.1 | 99 | 14 | 63 | 7 | i | 1 |
| CC1=NN(C(=O)c2csc(C)c2C)C(O)(C(F)(F)F)C1 (centres undefined) | -0.5 | 52 | -40 | 108 | -6 | i | 0.87 |
| c1cncc(CSc2nnc(-c3cccnc3)n2Cc2ccco2)c1 | -1.2 | 102 | . | . | -8 | i | 0.76 |

Random draw from the library; 1.1% or so of the library scored in one or more.
